NPR1 antag – Natriuretic polypeptide receptor (hNpr1) antagonism - Primary qHTS; HEK293 hNpr1 GloSensor cGMP, ANP-stimulated luminescence; Potency, µM (top dose mostly 46.3 µM), for the others: top-dose activity change, negative = inhibition, hits mostly inhibitors; 1.6% of 76,000 active; AID 1347048, 2019; active = well fitted inhibition curve with a large enough effect; inconclusive = small, poorly fitted or top-dose-only effect; inactive = no such curve, though single readings can be large or run the other way;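 note: nearly all actives have a fitted effect of over 60% in size; nearly all hits also lower the signal before the agonist is added; a reference antagonist and vehicle were the controls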
Target sequence (P16066 whole entry, looked up): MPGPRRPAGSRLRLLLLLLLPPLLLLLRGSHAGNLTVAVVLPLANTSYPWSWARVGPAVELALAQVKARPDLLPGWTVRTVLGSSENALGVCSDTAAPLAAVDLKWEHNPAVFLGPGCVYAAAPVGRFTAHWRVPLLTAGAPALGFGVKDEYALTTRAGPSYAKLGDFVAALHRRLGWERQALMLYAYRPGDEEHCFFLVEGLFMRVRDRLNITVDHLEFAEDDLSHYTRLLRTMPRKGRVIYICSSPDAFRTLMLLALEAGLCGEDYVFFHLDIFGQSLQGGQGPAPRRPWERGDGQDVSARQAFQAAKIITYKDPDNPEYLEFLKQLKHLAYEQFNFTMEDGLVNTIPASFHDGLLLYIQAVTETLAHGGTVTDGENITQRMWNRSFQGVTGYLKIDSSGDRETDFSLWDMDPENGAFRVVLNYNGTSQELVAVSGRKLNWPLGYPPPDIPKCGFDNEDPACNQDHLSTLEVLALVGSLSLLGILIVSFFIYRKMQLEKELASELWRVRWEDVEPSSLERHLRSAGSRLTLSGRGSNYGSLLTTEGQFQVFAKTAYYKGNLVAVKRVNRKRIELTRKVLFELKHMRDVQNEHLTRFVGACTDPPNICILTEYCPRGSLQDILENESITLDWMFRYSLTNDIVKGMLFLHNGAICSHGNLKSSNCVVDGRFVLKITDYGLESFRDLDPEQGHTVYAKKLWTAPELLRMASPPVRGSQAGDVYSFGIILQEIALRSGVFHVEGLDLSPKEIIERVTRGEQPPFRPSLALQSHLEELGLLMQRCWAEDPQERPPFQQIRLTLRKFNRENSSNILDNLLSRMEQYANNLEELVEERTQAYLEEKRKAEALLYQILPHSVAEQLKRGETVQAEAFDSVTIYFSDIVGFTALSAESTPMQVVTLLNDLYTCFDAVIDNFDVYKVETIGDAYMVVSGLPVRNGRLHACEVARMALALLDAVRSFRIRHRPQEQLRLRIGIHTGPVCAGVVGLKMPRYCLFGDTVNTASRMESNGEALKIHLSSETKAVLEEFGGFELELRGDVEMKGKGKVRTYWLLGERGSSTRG
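Compound pre-incubated 30 min at room temperature on GloSensor-loaded HEK293 cells stably carrying hNpr1 and the pGS-40F cGMP biosensor. Stimulation uses hNppA at 0.1 nM final; luminescence is taken at baseline and 20 min post-agonist.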
An asterisk follows results filed as active; ? = inconclusive; [ ] = dose if it differs, or a comment. % is set by controls: 0 for no effect and ±100 for the full control effect; potency is the fitted concentration of half-maximal effect. These rows are one share of the data. The share of hits here may be higher or lower than overall.

The first six compounds (preview)
NPR1 antag	SMILES
-20%	COc1ccc(-c2nc(C)nc3c2CCN(C(=O)c2ccccc2)CC3)cc1
3%	O=C(CN1CCCC1=O)NC1CCN(Cc2ccccc2)CC1
3%	Cc1ccc(CNC(=O)c2nnn3c2COC(c2ccc(C)cc2)C3)cc1 (stereo not drawn)
2%	CC(C)n1c(C2CCN(C(=O)Cc3c[nH]c4ccccc34)CC2)nn(C)c1=O
?	Cc1noc(C)c1S(=O)(=O)N1CCC(C(=O)N2CCC(CCOc3ccc(F)cc3)C2)CC1 (stereo not drawn)
-3%	O=C(CCc1ccccn1)N1CC[C@@H](N2CCN(c3ccccc3F)CC2)[C@H](O)C1

Main list, from the start:
NPR1 antag	SMILES
-20%	COc1ccc(-c2nc(C)nc3c2CCN(C(=O)c2ccccc2)CC3)cc1
3%	O=C(CN1CCCC1=O)NC1CCN(Cc2ccccc2)CC1
3%	Cc1ccc(CNC(=O)c2nnn3c2COC(c2ccc(C)cc2)C3)cc1 (stereo not drawn)
2%	CC(C)n1c(C2CCN(C(=O)Cc3c[nH]c4ccccc34)CC2)nn(C)c1=O
?	Cc1noc(C)c1S(=O)(=O)N1CCC(C(=O)N2CCC(CCOc3ccc(F)cc3)C2)CC1 (stereo not drawn)
-3%	O=C(CCc1ccccn1)N1CC[C@@H](N2CCN(c3ccccc3F)CC2)[C@H](O)C1
-17%	Cc1ccc2c(C)c(C(=O)N3CCCC3c3nc(C(C)C)no3)oc2c1C (stereo not drawn)
7%	O=C(NCc1ccccc1)N1CCC(Oc2ncccc2C(=O)N2CCOCC2)C1 (stereo not drawn)
-17%	Cc1nc(-c2cccc(Cl)c2)n(CC(=O)NCCCc2ccccc2)c(=O)c1CCO
-13%	O=C(CC1CCOC2(CCN(S(=O)(=O)Cc3ccccc3)CC2)C1)N1CCOCC1 (stereo not drawn)
?	CC(C)(C)c1ccc(C(=O)Nc2ccc(C(O)[C@H]3COCC(=O)N3Cc3ccccc3)cc2)cc1 (stereo partly drawn)
-17%	COc1cccc(C(=O)N2CCC3(CC2)NC(=O)N(c2ccccc2)N3)c1
0%[70.6 µM]	O=C(Nc1ccccc1)N[C@H]1[C@H](O)[C@@H](N2CCCC2)[C@@H]2OC[C@H]1O2
0%	CCCN1CCOc2ccc(C(=O)NCc3ccccc3F)cc2C1
3%	COCCNC(=O)C(NC(=O)c1ccccc1Cl)C1CCN(C(=O)c2ccccc2)CC1 (stereo not drawn)
2%	COc1ccc(C(=O)N[C@@H]2CCC[C@@H]2C(=O)NCc2cccc(C)c2)cc1

Exported as labelled records: entries from further up
smiles: CC(C)n1c(C2CCN(C(=O)Cc3c[nH]c4ccccc34)CC2)nn(C)c1=O
- NPR1 antag: 2%
smiles: Cc1noc(C)c1S(=O)(=O)N1CCC(C(=O)N2CCC(CCOc3ccc(F)cc3)C2)CC1 (stereo not drawn)
- NPR1 antag: ?
smiles: O=C(CCc1ccccn1)N1CC[C@@H](N2CCN(c3ccccc3F)CC2)[C@H](O)C1
- NPR1 antag: -3%
smiles: Cc1ccc2c(C)c(C(=O)N3CCCC3c3nc(C(C)C)no3)oc2c1C (stereo not drawn)
- NPR1 antag: -17%

(cont.)
NPR1 antag	SMILES
5%	COc1ccccc1C(=O)N1CCCC2(CNc3ccccc3[S+](=O)([O-])N2)C1 (stereo not drawn)
-22%	CCC1Oc2ccc(NC(=O)c3ccc([N+](=O)[O-])cc3)cc2CN(C(C)CC)C1=O (stereo not drawn)
-21%	O=C(N1c2ccccc2CC1c1noc(C2CCOCC2)n1)C1(c2ccccc2)CC1 (stereo not drawn)
3%	Cc1cnc(C(=O)N[C@@H]2CCC[C@@H]2C(=O)NCc2c(C)n[nH]c2C)cn1
-1%	CC(C)NC(=O)C1Cn2cccc2C(=O)N1C (stereo not drawn)
0%	O=C(N[C@@H]1COCC[C@@H]1OCc1ccccc1)c1n[nH]c2c1COCC2
-5%	COC(=O)[C@@H]1Cc2ncn(Cc3ccc(Cl)cc3)c2CN1S(=O)(=O)c1cccc2c(N(C)C)cccc12
4%	CCc1nccn1CC(=O)N1CCc2[nH]cnc2C1C(=O)O (stereo not drawn)
-1%	O=C(CN1CC2CC(C1)[C@H]1CCCC(=O)N1C2)NCCc1ccccc1 (stereo partly drawn)
1%	CN1CCN(c2nc3c(c(=O)[nH]2)CCN(Cc2ccc(Br)o2)CC3)CC1
-2%	Cc1ccc(-c2nc(C(=O)NCc3ccccc3F)no2)cc1
2%	CCc1n[nH]c(CC2CCN(C(=O)c3ccc(OC)c(OC)c3)CC2)n1
-3%	CCOc1ccc(CC(=O)N2CCC(Oc3ncccc3C(=O)N3CCCCC3)C2)cc1 (stereo not drawn)
-1%	CCC(=O)N1CC(n2cc(C(=O)NCC3CC3)nn2)C1
9%	NCCc1cccc(CN2CCCC(CO)(CC3CC3)C2)c1 (stereo not drawn)
-8%	CN(CC1CCCN(CCc2cccc(C(F)(F)F)c2)C1)C(=O)c1ccc2[nH]ccc2c1 (stereo not drawn)
1%	COc1ccc(NC(=O)N2CCCC2c2nncn2C2CCCC2)c(OC)c1 (stereo not drawn)
-27%	COCC1CN(C2CCC2)CC12CCN(C(=O)C1(c3ccccc3)CC1)CC2 (stereo not drawn)
1%	CC(=O)c1ccc(NC(=O)N2C[C@@H]3C[C@H](C2)c2ccc(NC(=O)Nc4cccc(F)c4)c(=O)n2C3)cc1
-8%	COc1ccc2[nH]c3c(c2c1)CCNC31CCN(Cc2ccc(C)o2)CC1
-23%	C[C@H](C(=O)N1CCSCC1)C1CC[C@@]2(C)Cc3sc(Nc4c(Cl)cccc4Cl)nc3[C@@H](C)[C@@H]2[C@H]1O (stereo partly drawn)
2%	O=C(Cn1nc2n(c1=O)CCCC2)NCc1ccccc1Cl
2%	O=C(c1cccc2[nH]ccc12)N1CCC(N2C(=O)C(OCC3CC3)C23CCOCC3)CC1 (stereo not drawn)
3%	Cc1ccc(OCC(=O)NCc2c(C)ncc3c2CCNC3)cc1C
1%	NC(=O)[C@H](CC1CCCCC1)NC(=O)[C@H]1CN(C(=O)C2CCNCC2)CCN1C(=O)NC1CCCCC1
-7%	COc1ccccc1NC(=O)Cn1c(N2CCN(c3ccccc3)CC2)nc(C)cc1=O
4%	CN(C(=O)CN1CCOCC1)C1CCc2nn(C)c(=O)n2CC1 (stereo not drawn)
-7%	O=C1CCN(S(=O)(=O)c2ccccc2)CCCN(S(=O)(=O)c2cccc(F)c2)CCN1
3%	COc1cc2c(cc1OC)C(CNC(=O)c1cccs1)N(C(=O)Nc1ccccc1)CC2 (stereo not drawn)
1%	CN(C)c1cccc(C(=O)N2CCC[C@H]2c2nc(-c3ccc(F)cc3)no2)c1
-18%	C=CCOC(=O)C1=C(C)N=C2SC=C(CC(=O)N3CCCC3)N2C1c1ccc(F)cc1 (stereo not drawn)
17%	COc1cccc(C(=O)N2C[C@@H]3CCN(C)C[C@]3(C(=O)O)C2)c1C
-7%[70.6 µM]	Clc1cccc(CN2CC[C@H](c3nc4ccccc4o3)C2)c1
-3%	CCCCNC(=O)CC1CCN(c2ccnc(NCC)n2)CC1
6%	CCOc1cc(=O)n2c(c1C(=O)Nc1cccc(C#N)c1)CCCC2
1%	CCC[C@@H]1CN(S(=O)(=O)c2ccc(OC(F)F)cc2)C[C@H]1N(C)C
4%	CN(CCc1ccccn1)c1cc(C2CC(O)C2)ncn1 (stereo not drawn)
-11%	O=C(c1nnc(COc2ccc(F)c(F)c2)n1-c1ccccc1)N1CCC[C@@H]1c1cccc(F)c1
-6%[70.6 µM]	CCOCCN1C(=O)COC[C@@H]1[C@H](O)c1ccc(NC(=O)c2ccco2)cc1
0%	CCCS(=O)(=O)N1CCC(c2noc(-c3ccncc3)n2)C1 (stereo not drawn)
-2%	Cn1ccnc1C(=O)N1C[C@@H](COCC2CC2)[C@H](c2ccccn2)C1
-17%	O=C(NCCn1cccc1-c1nc(-c2ccc3c(c2)OCO3)no1)c1ccc2c(c1)OCO2
0%	CC(=O)N(C1CC1)C1CCOC2(CCN(C(=O)NCCc3ccccc3)CC2)C1 (stereo not drawn)
-2%	Cc1cc(CN2C[C@H](NC(=O)CNS(C)(=O)=O)[C@@H](C3CC3)C2)on1
-23%	O=C(NC1CCN(c2cc(-c3ccc(F)cc3)[nH]n2)C1)c1c[nH]c2ccccc12 (stereo not drawn)
1%[70.6 µM]	C=CCNC(=O)N[C@H]1[C@H](O)[C@@H](N2CCN(C(C)=O)CC2)[C@@H]2OC[C@H]1O2
-2%	CC(=O)Nc1cccc(OCc2nc3c(n2Cc2ccccc2)C(=O)N(Cc2ccccc2F)CCN3)c1
-1%	COc1cc(C)ccc1S(=O)(=O)N1CCCCC1CN1CCOCC1 (stereo not drawn)
13µM*	COc1cc(OC)cc(C(=O)N2CCC(Cc3nc(-c4ccc(F)cc4)no3)CC2)c1
-3%	Cc1ccc(C2Cn3nnc(C(=O)N4CCC(C(=O)Nc5ccccc5)CC4)c3CO2)cc1 (stereo not drawn)
8%	CC(Oc1ccc(F)cc1F)C(=O)N1CCC2(CC1)CC(=O)N(C)C2 (stereo not drawn)
3%	O=C(NCCc1noc(-c2cccnc2)n1)C1(c2ccccc2)CC1
-3%	O=C(COc1ccc(F)cc1)Nc1ccc(-c2nnc3n2CCCC3)cc1
-7%	O=C(c1cc(F)ccc1F)N1CCCC2(C1)NC(=O)N(Cc1ccccc1)C2=O (stereo not drawn)
1%	O=C(Nc1ccccc1)N[C@H]1C[C@H]2C(=O)NC[C@@H](CCC(=O)N3CCN(c4ccccn4)CC3)N2C1
0%	COCc1ccc(C(=O)N2CCc3c(ncnc3N3CCOCC3)C2)o1

Printed as active in NPR1 antag, among the entries above:
NPR1 antag	SMILES
13µM*	COc1cc(OC)cc(C(=O)N2CCC(Cc3nc(-c4ccc(F)cc4)no3)CC2)c1

New compounds follow.
NPR1 antag	SMILES
2%	O=c1[nH]nc2n1CCN(CC1CCCCC1)CC2
-2%	CN1c2cc(C(N)=O)ccc2C(=O)N2CCCCCC21 (stereo not drawn)
4%	CCN1CCN(CCNC(=O)[C@H]2CCC[C@H]2NC(=O)c2ccc(OC)cc2)CC1
1%	Cc1cc(F)ccc1OC1CN([S+](=O)([O-])c2cccc(C(F)(F)F)c2)C1
0%	CCN(CC)C1CCOC2(CCN(C(=O)C3CC3)CC2)C1 (stereo not drawn)
-9%	COCCOc1cc(=O)n2c(c1C(=O)NCCC1=CCCCC1)CCOCC2
-23%[70.6 µM]	COc1ccc(Nc2ccc3c(n2)CN(Cc2ccc(F)cc2)C(=O)CO3)cn1
-13%	CN1CCCN(S(=O)(=O)c2ccc3c(c2)OCCO3)c2ccccc21
-24%	C[C@H]1CN(C(=O)c2ccc(F)cc2)C[C@@H]1c1nc(-c2ccccc2)no1
7.1µM*	CCOc1ccc(C(=O)N2CCC(Cc3nc(-c4cccc(OC)c4)no3)CC2)cc1
-4%	COc1ccc(Cl)cc1-c1ccc2c(c1)C(=O)N1CCN(C(=O)C3CCNCC3)C[C@@H]1C(=O)N2
-2%	Cc1cnc(CC2CCN(C(=O)CCc3nc4ccccc4s3)CC2)n1CC1CC1
?	COc1ccc2cc(C3CN(C(=O)CCc4n[nH]c(C)n4)CCO3)ccc2c1 (stereo not drawn)
-20%	Cc1cc(Cl)ccc1NC(=O)C1CCN(C(=O)c2ncn3c2COC(c2ccc(F)cc2)C3)CC1 (stereo not drawn)
3%	O=C(Cc1ccccc1Cl)N[C@H]1CCOC[C@H]1C1CCOCC1
-1%	CCOc1cc(=O)n2c(c1C(=O)Nc1ccc(C)c(F)c1)CCCC2
-4%	C[C@@H]1CN(C(=O)Cc2cc(F)cc(Cl)c2)CC[C@]1(C)O
4%	COCCNC(=O)CCC[C@@H]1[C@H]2CCCN3CCC[C@@H](CN1C(=O)c1ccccc1)[C@@H]23
-29%	COc1cccc(C(=O)N2CCc3[nH]nc(C(=O)NCCCc4ccccc4)c3C2)c1
6%	CCc1ocnc1C(=O)N1CCC(Oc2ccccc2)(C(=O)O)CC1
-17%	CCCNC(=O)N(C1CCOCC1)C1CCN(C(=O)CCc2c[nH]c3ccccc23)CC1
5%	COCCc1noc(-c2ccccc2OC2CN(C(=O)c3ccc(C)nc3)C2)n1
2%	CCOc1ccccc1-c1noc(-c2nnn3c2COC(c2ccc(F)cc2)C3)n1 (stereo not drawn)
5%	COc1ccc(CN2C[C@@H]3C(=O)N(C)C(=O)[C@@H]3C2)c(OC)c1
-17%	CCn1cnnc1-c1nn(C)c2c1CN(C(=O)c1cc(F)ccc1F)CC2
-17%	COc1ccc(C(=O)N2CCn3c(nn(-c4ccc([N+](=O)[O-])cc4)c3=O)C2)cc1
3%	CCN1CCN(c2ccc(C(=O)NCCCn3ccnc3C(C)C)cn2)CC1
1%	CCCCCC(=O)Nc1nc2c(s1)C[C@@H]1[C@](C)(CO)[C@H](O)CC[C@@]1(C)[C@@H]2CC(=O)O
1%	COCc1nc(C2CC(N)C2)cc(N2CCc3[nH]nc(C(=O)OC)c3C2)n1 (stereo not drawn)
12%	COc1ccc(Cn2c(C3CCN(C(=O)c4ccccc4F)CC3)n[nH]c2=O)cc1
4%	CC(C)(C)n1nnnc1C1CC2(CCOCC2)C(=O)N1Cc1ccc(F)cc1Cl (stereo not drawn)
-8%	CN[C@@H](CC(C)C)C(=O)N[C@H]1CCN2C(=O)c3cc(-c4ccc(OC)cc4OC)ccc3NC(=O)[C@@H]2C1
-1%	Cc1ccccc1NC(=O)CCNc1c(-c2ccc(F)cc2)nc2cnccn12
-3%	COCCN1CC(CO)C2(CCN(Cc3sccc3C)CC2)C1 (stereo not drawn)
1%	Cc1cccc(C(=O)N2C[C@@H](Oc3cccnc3)C[C@H]2C(=O)N2CCOCC2)c1

Source: PubChem
